CSC inhib = cancer stem cell inhibition; cancer stem cell-like cells viability, luminescence; inhibition, % at 7.5 µM; 300,000 tested, 1.1% active; AID 2717;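 active = mean at 75% or more and at least half the replicates too; inconclusive = mean and replicates disagree; tested in HMLE shEcad cells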;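 note: 0% = median of negative and 100% = median of positive control wells; the first replicate is given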
eIF4H inh = inhibitors of RNA binding by human eIF4H; AID 2012; Q15056; 290,000 tested, 0.94% active; eIF4H fluorescence polarization binding assay; inhibition, % at 35 µM;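 active = 50% or more with normal probe brightness, or confirmed in later tests; inconclusive = above 50% with abnormal brightness, or retests that disagree; inactive = below 50% or failed in later tests; about a fifth of its hits are not listed in these tables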;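 note: calls also rest on retests at 20 µM and on dose response follow-up; 0% = protein and probe with vehicle and 100% = probe without protein; strong numbers were not always called active; many hits fall short of the cut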
PABP polyA inh = PABP-poly(A) binding inhibition | PABP-poly(A) RNA binding, fluorescence polarization | inhibition, % at 35 µM | 290,000 tested, 1% active | P11940;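 active = 50% or more with normal probe brightness, or confirmed in later tests; inconclusive = above 50% with abnormal brightness, or retests that disagree; inactive = below 50% or failed in later tests; about a fifth of its hits are not listed in these tables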;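 note: calls also rest on retests at 20 µM and on dose response follow-up; controls were probe without protein and protein plus probe with vehicle; some compounds called inactive have numbers as strong as hits; many hits fall short of the cut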
MT1-MMP act inh = blocks activation of human MT1-MMP | P50281 | HT1080 RFP-PRO-GFP cells, GFP/RFP ratio fluorescence, overnight; percent of plate control window, DMSO zero | GFP/RFP ratio change, % at 20 µM | 360,000 tested, 0.061% active | AID 651647;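 active = GFP/RFP ratio change of at least 30% with cell ATP level not reduced by more than half and red fluorescence within 50% of control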; note: strong numbers were not always called active
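Assay system: RFP-PRO-GFP reporter HT1080 cells; read-out basis: GFP/RFP fluorescence ratio; benchmarks: DMSO wells and RFP-L50D-GFP cells; doses: 20 µM single dose, 1% DMSO; schedule: overnight cell settling, then overnight compound exposure, 37 °C, 5% CO2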
Yeast UUG start = modulators of start codon recognition fidelity in yeast; activity score, % at 18.7 µM; AID 602363; S. cerevisiae UUG-firefly luciferase reporter, luminescence/redox ratio; 350,000 tested, 0.13% active;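 active = replicate mean at a twofold rise or more, about +100% in these data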;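 note: firefly luciferase made from a UUG start codon reports start codon fidelity; reporter light over untreated wells divided by growth signal over untreated wells; some hits fall short of that in this replicate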
Rce1 inh = inhibitors of yeast Ras-converting enzyme. yeast membranes, quenched prenylated peptide cleavage fluorescence. calls only. 290,000 tested, 0.27% active;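 active = fall in fluorescence gain of 50% or more versus controls, with final raw signal at or below 3038400; inconclusive = same 50% fall but final raw signal above 3038400; inactive = fall in fluorescence gain under 50%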;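 note: plate controls were neutral control wells for no effect and wells lacking membranes for full effect; tested at 10 µM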
Target sequence (Q03530 whole entry, looked up): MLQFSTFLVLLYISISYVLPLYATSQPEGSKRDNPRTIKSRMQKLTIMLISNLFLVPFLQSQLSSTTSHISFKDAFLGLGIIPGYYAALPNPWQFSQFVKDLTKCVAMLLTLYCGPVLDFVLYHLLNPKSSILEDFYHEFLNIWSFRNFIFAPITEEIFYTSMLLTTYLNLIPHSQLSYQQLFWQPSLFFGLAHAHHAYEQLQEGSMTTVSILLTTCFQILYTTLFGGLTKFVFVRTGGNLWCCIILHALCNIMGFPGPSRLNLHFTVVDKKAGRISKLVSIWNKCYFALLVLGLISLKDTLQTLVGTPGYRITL
Env fusion inh = inhibitors of HIV Env-mediated cell fusion | HeLa-JRFL Env/CEM21 cell fusion, luciferase | inhibition, % at 12.3 µM | 360,000 tested, 1.1% active | AID 651610;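 active = mean replicate inhibition score of at least 50 and every replicate individually at or above 50; inconclusive = only one of the two criteria met; inactive = mean below 50 and not all replicates reaching 50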;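 note: 0% = plate neutral controls and 100% = maraviroc near 300 nM; one replicate is shown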
eIF4H inh retest = recorded beside eIF4H inh, whose call it bears; inhibition, %; compound at 20 µM; confirmation average;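 mean of two retest wells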
PABP polyA inh retest = recorded beside PABP polyA inh, whose call it bears; inhibition, %; compound at 20 µM; confirmation repeats;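 mean of two retest wells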
MT1-MMP act inh RFP = further read-out of MT1-MMP act inh, marked with its call; RFP signal change, %; measured here: RFP expression control read;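 0 = vehicle wells; hits needed this value within 50% of zero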
* = called active by the depositor; i = inactive; ? = inconclusive; / = not tested or not shown; & = joins results of further samples. Some of the compounds tested, so the mix of outcomes need not match the whole.

SMILES	CSC inhib	eIF4H inh	PABP polyA inh	MT1-MMP act inh	MT1-MMP act inh RFP	Yeast UUG start	Rce1 inh	Env fusion inh	others
O=C(O)/C(=C1\OC(=O)c2ccccc21)c1ccccc1	/	2	-6	1	3	-1	i	/
CCc1ccccc1NC(=O)c1cccc(NC(=O)/C=C/c2ccco2)c1	-2	-2	-5	2	-4	-15	i	8
Cc1cccc(C)c1N(CC(=O)NC1CCCCC1)C(=O)c1csnn1	52	9	5	2	2	-8	i	-1
COC(=O)c1ccc2c(=O)n(Cc3ccc(C(=O)NC(C)C)cc3)c(=S)[nH]c2c1	25	-10	7	-2	-10	-13	i	-43
CCOc1cc(S(=O)(=O)NC2CC2)c(OCC)cc1-n1cnnn1	-5	-5	1	2	2	12	i	-47
CCC(=O)N(Cc1ccc(S(N)(=O)=O)cc1)C1CC(=O)N(c2ccccc2)C1=O (stereo not given)	3	4	-12	5	8	-10	i	-11
CN(C)S(=O)(=O)N(CC(=O)NCCSCc1ccccc1)c1ccccc1	-9	29	-8	-4	4	/	i	8
NS(=O)(=O)c1ccc(CCNC(=O)CCCCCn2c(=S)[nH]c3ccc(Br)cc3c2=O)cc1	-7	0	-1	1	0	/	i	19
CCc1ccc(NC(=O)CSC2=C(C#N)C(c3ccc4c(c3)OCO4)CC(=O)N2)cc1 (stereo not given)	/	/	/	3	-10	-11	i	/
C/C=C/CSc1nc2c(c(=O)[nH]c(=O)n2C)n1CCC	-14	4	-5	5	1	-11	/	/
CCOC(=O)NC(=O)/C(C#N)=C\Nc1ccc(Cl)cc1Cl	-1	-5	12	0	-1	/	i	-52
Cc1cc(C)c(C#N)c(N2CCCC2)n1	-10	0	3	-4	0	-15	i	/
O=S(=O)(Cc1ccccc1)N1CCNCC1	/	-9	4	4	5	-3	i	-16
Cc1ccc(Oc2nc3ccccn3c(=O)c2/C=C(\C#N)C(=O)NC2CCS(=O)(=O)C2)cc1 (stereo not given)	-6	64	19	-4	-4	/	i	-5	eIF4H inh retest=19;PABP polyA inh retest=42
CCOC(=O)N1CCN(c2ccc(Cl)cc2)CC1	2	4	3	3	0	-21	i	-9
O=C(CCCN1C(=O)c2ccccc2C1=O)NCc1ccc(F)cc1	6	-7	6	3	5	4	i	-5
CC1CCC(C(=O)NNC(=O)c2cc(-c3ccco3)[nH]n2)CC1 (stereo not given)	-2	8	-4	0	2	-31	i	-22
COc1ccc(F)cc1C(=O)C1CCCN(C(=O)c2ccccc2N(C)C)C1 (stereo not given)	-1	-12	-4	3	-3	1	i	7
COc1ccc(CCN2CC(C(=O)OCc3ccccc3Cl)CC2=O)cc1OC (stereo not given)	/	/	/	-6	0	-16	/	-5
N=c1sccn1CC(=O)Nc1cccc2ccccc12	11	-5	9	-2	2	-30	i	/
CCc1noc(C)c1C(=O)OCC(=O)Nc1ccc(F)cc1Cl	1	/	/	-1	1	-19	/	7
CCn1c(SC(C)C(=O)NC2CCCc3ccccc32)nnc1-c1cccs1 (stereo not given)	-5	2	9	4	2	-1	i	/
COc1ccc(CCC(=O)OCC(=O)N(CC(C)C)c2c(N)n(Cc3ccccc3)c(=O)[nH]c2=O)cc1	-2	/	/	-2	-1	-22	i	3
COc1cc(NC(=O)CSc2nc3ccccc3n2-c2ccccc2)c(C)cc1[N+](=O)[O-]	11	2	-5	-1	-6	-10	i	13
CCCCN1CC(COCc2ccccc2)Oc2cccc(OCCN3C(=O)[C@@H]4[C@H](C3=O)C3C=C[C@H]4C3)c2S1(=O)=O (stereo not given in full)	/	/	/	-14	-15	-10	/	15

Following part:
SMILES	CSC inhib	eIF4H inh	PABP polyA inh	MT1-MMP act inh	MT1-MMP act inh RFP	Yeast UUG start	Rce1 inh	Env fusion inh	others
COc1ccccc1N1CCN(C(=O)CSc2nc(-c3ccco3)cc(C(F)(F)F)n2)CC1	21	-1	0	3	-3	/	i	/
COc1cc(C2=NOC(C(=O)N3CCCc4ccccc43)C2)cc(OC)c1OC (stereo not given)	-12	-2	-6	18	-2	14	i	-21
CCCCN(C)C(=O)c1c[nH]c2ccc(S(=O)(=O)N3CCOCC3)cc2c1=O	/	5	-4	-1	0	-15	i	-11
COc1cc(S(=O)(=O)n2cnc(C)c2)ccc1Cl	22	0	5	-4	2	/	i	-3
CCCc1nc2c3ccccc3ccn2c1Cc1ccccc1C(F)(F)F	/	/	/	-1	-1	26	/	9
COc1ccc(C(=O)C[n+]2cccc(C(N)=O)c2)cc1	-21	1	2	-7	0	-10	i	7
Clc1ccc(Nc2nc3ccccc3n3nnnc23)cc1	3	3	6	1	10	-11	i	/
COc1cccc2c1OC1(CCN(C(C)C)CC1)N1N=C(c3cccnc3)CC21 (stereo not given)	-8	14	12	-1	2	1	i	3
O=C(Nc1cc(Cl)ccc1Oc1ccccc1)c1ccccc1F	22	-10	-2	-5	-9	/	i	-44
COc1cc(NC(=O)CCc2nnc3ccc(N4CCN(C)CC4)nn23)cc(OC)c1	4	-3	-10	-5	-1	-1	i	0
CCn1c(=O)c(-c2nc3ccccc3[nH]2)c(O)c2ccccc21	-1	10	3	/	/	/	i	10
CNC(=O)c1[nH]cnc1C(=O)Nc1ccc(F)cc1	-1	-12	-2	-3	-1	-14	i	2
CC(=O)N/C(=C\c1ccc(F)cc1)C(=O)OCc1ccccc1	-5	2	7	-5	-1	-15	i	-5
COc1ccc(NC2C=CS(=O)(=O)C2)cc1 (stereo not given)	-1	-1	-1	-10	2	-6	i	-34
Cc1cc(NC(=O)CCC(=O)N(CCc2ccccc2)C(C(=O)NC2CCCC2)c2ccco2)no1 (stereo not given)	11	-6	8	-11	-8	-4	i	/
Cc1ccccc1NC(=O)C1c2ccccc2Oc2ccccc21	-5	10	-10	0	4	1	i	-7
Cc1ccc(OCC(=O)N2CCN(S(=O)(=O)c3ccccc3[N+](=O)[O-])CC2)cc1	-16	-6	-6	4	-5	/	i	10
Oc1[nH]c2ccccc2c1/C=N/N1CCCCC1	9	-9	-6	0	9	/	i	29
CCCC(=O)Nc1nnc(SCC(=O)Nc2ccc3c(c2)OCCO3)s1	/	-4	-4	-1	1	/	i	9
CCOC(=O)N1CCN(C(=O)c2cn(CC)c3ccc(S(=O)(=O)N4CCCCC4)cc3c2=O)CC1	13	6	?	2	5	/	i	3
CSc1cccc(N=C2C(=O)Nc3ccccc32)c1	5	1	8	1	4	-20	i	23
C[C@@H]1CN([C@@H](C)CO)C(=O)CCCn2nncc2CO[C@H]1CN(C)C(=O)Nc1ccc(N2CCCCC2)cc1	/	/	/	1	3	-19&15	/	1
CCc1ccc(C(=O)COC(=O)c2cccs2)cc1	15	-10	1	-6	0	-80	i	-86
COc1ccc([C@H]2N[C@]3(CCCN(Cc4ccc(F)cc4)C3=O)[C@H]3C(=O)N(C)C(=O)[C@@H]23)cc1	/	/	/	3	6	-22	/	-34
Cc1ccc2cc3c(NC(=O)c4ccco4)nn(CC(C)C)c3nc2c1	-9	-8	-1	-4	-2	-6	i	/

(list continues)
SMILES	CSC inhib	eIF4H inh	PABP polyA inh	MT1-MMP act inh	MT1-MMP act inh RFP	Yeast UUG start	Rce1 inh	Env fusion inh	others
CCCCN(C)C(=O)CCCc1c[nH]c2ccccc12	3	-5	-7	-6	-2	-7	/	-124
CCN(CC)C(=O)CSc1nc2cc3c(cc2c(=O)n1CCCC(=O)NCCc1ccc(OC)c(OC)c1)OCO3	-5	5	-3	-2	-2	-6	/	9
Cc1nc2scc(-c3cccs3)c2c(=O)o1	0	2	19	0	5	/	i	/
O=C(CC(C(=O)O)C1CCCO1)NCCc1ccc2c(c1)OCO2 (stereo not given)	/	7	-4	0	2	-20	i	-35
CCCOC(=O)/C(C)=N\NC(=O)c1ccco1	-2	7	-3	-1	5	-8	i	/
COc1ccc(N2C(=O)c3ccccc3NC2c2ccc(OC)c(Cn3cc([N+](=O)[O-])cn3)c2)cc1 (stereo not given)	11	0	18	10	-1	-11	i	11
C=C1SC(=Nc2ccccc2Cl)N(C(=O)c2sc3ccccc3c2Cl)C1(C)C	35	2	3	-6	-2	/	i	11
COc1ccc(CNC(=O)C2CCN(S(=O)(=O)c3ccc4c(c3)CC(C)N4C(C)=O)CC2)cc1 (stereo not given)	-11	-2	7	2	-7	-9	i	-6
O=C(CCC(=O)Nc1ccccc1Cl)NNS(=O)(=O)c1ccc(Cl)cc1	-6	1	18	-1	0	-10	i	-96
CCOc1ccc(C(=O)NCC(=O)OC(C)C(=O)NCc2ccco2)cc1OCC (stereo not given)	7	2	9	-4	1	-10	i	/
CCOCCCn1c(=NC(=O)c2ccco2)c(C(=O)OCC)cc2c(=O)n3cccc(C)c3nc21	-7	7	3	2	-3	/	i	4
C[C@H](CO)N1C[C@H](C)[C@@H](CN(C)CC2CCOCC2)Oc2ncc(Br)cc2C1=O	/	/	/	-3	2	-4&-4&-6	/	?
COc1ccc(CNC(=O)NC2CCCCC2)cc1	-7	-10	9	3	4	/	i	/
COc1ccc(C2=NCN(c3ccc(C)cc3)C(=S)N2)cc1	-8	3	-2	-3	-5	-17	i	/
O=C(O)/C=C\C(=O)Nc1ccc(Oc2ccc(Br)cc2)cc1	-6	5	18	-3	-8	/	i	1
S=c1[nH]c(-c2ccccc2)cn1-c1ccccc1	-12	-1	6	2	-1	-29	i	-18
Cc1ccc(C)c(-n2cc(CN3CCCN(C=O)CC3)c(-c3ccccc3)n2)c1	-12	-4	-7	-6	-6	-13	i	28
Cc1ccc(-n2c(C)nnc2SC(C)C(=O)N2CCCC2)cc1 (stereo not given)	-32	-4	17	1	3	-10	i	-7
Cc1c(C)[n+](=O)c2c(n1[O-])CCCCC2	5	-2	1	-5	-3	-18	i	8
COc1ccccc1-n1cnc2cc(NC(C)=O)ccc21	-7	-4	17	5	9	-28	i	-78
CC(C)CC(NC(=O)C(NC(=O)C1CCC(=O)N1C(=O)OCc1ccccc1)C(C)C)C(=O)N1CCCC1C(N)=O (stereo not given)	-6	-2	2	0	6	-3	i	5
COc1ccccc1CNC(=O)COC(=O)c1cc2ccccc2o1	/	/	/	2	8	-25	/	-7
COC(=O)C1=NN(c2ccccc2OC)C2C(=O)N(c3ccccc3OC)C(=O)C12 (stereo not given)	-2	-1	-6	-6	9	/	i	/
O=C(CNC(=O)/C=C/c1ccccc1)N=Nc1c(O)n(Cc2ccccc2)c2ccccc12	17	-13	5	/	/	/	i	7
COc1cccc(-c2cnc3c(NC(C)=O)cc(-c4cccc(C(=O)N(C)C)c4)cn23)c1	/	/	/	-1	0	-6	/	-14

More structures
SMILES	CSC inhib	eIF4H inh	PABP polyA inh	MT1-MMP act inh	MT1-MMP act inh RFP	Yeast UUG start	Rce1 inh	Env fusion inh	others
Cc1c(N=Cc2cc3c(cc2[N+](=O)[O-])OCO3)cccc1[N+](=O)[O-]	9	/	/	2	-1	/	i	6
CC(C)n1c(O)c(N=NC(=O)C2COc3ccccc3O2)c2ccccc21 (stereo not given)	47	-3	7	0	2	-7	/	1
O=C(CN1C(=O)NC2(CCCC2)C1=O)NCc1cccc(Cl)c1	-3	/	/	8	-2	-1	/	6
Cc1ccc(Cl)c(OCC(=O)Nc2ccc3c(c2)OCCO3)c1	7	-8	8	4	-6	-24	i	-150
O=C(Nc1ccc2c(c1)OCO2)C1CC(c2ccccc2Cl)=NO1 (stereo not given)	-16	-6	-4	4	5	-13	i	/
C=CCOC(=O)COc1ccc2c(C)c(C)c(=O)oc2c1	12	3	3	3	2	-25	i	-2
